# From PubChem
# KCNQ2 block: KCNQ2 potassium channel inhibitors, primary screen, cell-based, CHO-K1, FluxOR thallium flux, B-score (AID 2156); O88943; 20 min; active compounds read low; only compounds with negative scores are shown here; some inactives read as strong as hits; B-score at 10 µM; 310,000 compounds, 1.1% hits;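 active means fluorescence ratio B-score at most minus 3 library SDs, with starting brightness B-score within 2 library SDs, cut at about -5.5 in these data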
# Target sequence (O88943 whole entry, looked up): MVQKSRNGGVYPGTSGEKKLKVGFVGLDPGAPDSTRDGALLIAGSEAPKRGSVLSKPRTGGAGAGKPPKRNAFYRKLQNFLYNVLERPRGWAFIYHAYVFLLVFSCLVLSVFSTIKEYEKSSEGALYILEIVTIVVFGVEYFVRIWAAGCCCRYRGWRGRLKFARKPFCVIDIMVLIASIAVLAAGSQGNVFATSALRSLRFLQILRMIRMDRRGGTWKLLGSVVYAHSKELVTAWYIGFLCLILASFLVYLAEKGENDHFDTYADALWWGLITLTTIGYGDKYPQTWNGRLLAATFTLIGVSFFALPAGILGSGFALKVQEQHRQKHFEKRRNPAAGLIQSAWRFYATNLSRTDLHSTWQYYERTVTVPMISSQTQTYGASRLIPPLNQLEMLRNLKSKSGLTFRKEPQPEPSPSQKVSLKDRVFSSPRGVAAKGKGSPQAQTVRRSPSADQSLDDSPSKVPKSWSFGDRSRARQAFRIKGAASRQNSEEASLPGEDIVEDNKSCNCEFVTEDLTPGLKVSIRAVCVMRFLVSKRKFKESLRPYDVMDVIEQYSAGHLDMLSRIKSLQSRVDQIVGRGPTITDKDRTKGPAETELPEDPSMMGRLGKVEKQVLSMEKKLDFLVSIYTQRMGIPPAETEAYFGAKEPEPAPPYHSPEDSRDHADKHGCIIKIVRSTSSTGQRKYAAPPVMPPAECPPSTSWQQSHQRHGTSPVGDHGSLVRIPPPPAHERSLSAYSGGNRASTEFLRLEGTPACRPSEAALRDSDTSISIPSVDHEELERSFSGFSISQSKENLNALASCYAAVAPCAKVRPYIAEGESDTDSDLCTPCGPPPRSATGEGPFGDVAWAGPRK
# KCNQ2 block baseline: recorded beside KCNQ2 block, whose call it bears; B-score; measured here: initial fluorescence intensity artifact check;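 brightness before thallium and not channel activity; 0 = typical well and far values either way flag optical interference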
# Numbers without * were called inactive; i = inactive. Only part of the results is shown. The share of hits here may be higher or lower than overall.
# The line under a structure holds: KCNQ2 block, KCNQ2 block baseline
COc1cc2c(cc1OC)CN(Cc1ccc(F)cc1)CC2
 : i, -1.2
COc1ccc(C2(CNC(=O)C(=O)Nc3ccc(C)cc3)CCOCC2)cc1
 : i, -0.21
O=C1C2=C(NC(=S)NC2c2ccc(Cl)cc2)NC(c2ccc(Cl)cc2)N1c1ccc(Cl)cc1 (stereo not given)
 : i, -0.49
CCN(CC)c1ccc2cc(NC(=O)CCC(=O)O)c(=O)oc2c1
 : i, 36
O=C(NCCCCc1ccccc1)Nc1ccc(F)cc1F
 : i, 1.2
CCCCCSc1nnc(C)c(=O)[nH]1
 : i, 0.19
CCCn1c(=O)c(C(=O)NCCc2ccc(OC)cc2)c(O)c2ccccc21
 : -8.2*, -0.74*
Oc1c(/C=N/Nc2cccc3cccnc23)ccc2ccccc12
 : i, 0.78
Cc1ccnc(NS(=O)(=O)c2ccc(N3C(=O)C4CCCCC4C3=O)cc2)n1 (stereo not given)
 : i, -1.6
COc1ccccc1C(C)NC(=O)c1cc(=O)[nH]c2ccccc12 (stereo not given)
 : i, 0.01
Cc1nn(C)cc1CN1CCCC(C(=O)c2ccc(-c3ccccc3)c(F)c2)C1 (stereo not given)
 : i, -0.52
COc1ccc(OC)c(-c2csc(NC(=O)Cc3ccccc3OC)n2)c1
 : i, -0.06
O=C1CC(NS(=O)(=O)c2cc(F)ccc2F)CN1c1ccc2c(c1)OCCO2 (stereo not given)
 : i, -0.02
CN(CC(=O)Nc1ccc(Cl)c(C(F)(F)F)c1)C(=O)CC1Sc2ccccc2NC1=O (stereo not given)
 : i, 1.5
CCN(CC(=O)Nc1ccccc1OC)C(=O)/C=C/c1cccs1
 : i, 1.3
Cc1cccc2nc(-c3ccco3)c(Nc3ccccc3)n12
 : i, 0.18
c1ccc(-c2noc(C3CCC3)n2)nc1
 : i, 0.48
Cc1ccnc(NC(=O)c2cc(-c3ccc(Cl)s3)nc3ccccc23)c1
 : i, -0.83
O=C(N/C(=C\c1ccccc1)C(=O)N1CCN(CCO)CC1)c1ccccc1
 : i, -0.05
CCN1CCSc2ccc(C(=O)NCc3ccccc3C)cc21
 : i, 1.3
CCC(C)NC(=O)CN(c1cc(C)ccc1OC)S(C)(=O)=O (stereo not given)
 : i, 0.82
CCCOc1ccc(C2=NNC(c3cccs3)=Nc3ccc(OC)cc32)cc1
 : i, 0.13
Cc1ccc(C(=O)Nc2cccc(C(F)(F)F)c2)cc1Nc1ncnc2nc[nH]c12
 : i, 1.1
COC(=O)C1C(c2ccccc2)C(C(=O)N2CCOCC2)C1c1ccccc1 (stereo not given)
 : i, 0.87
O=C(CSc1ccc2c(c1)OCCO2)Nc1ncccc1O
 : i, 0.42
O=C(O)c1cc(-c2cccs2)nn1-c1ccc(F)cc1
 : i, 0.86
O=C(NNS(=O)(=O)c1ccc2ccccc2c1)c1cc(-c2ccccn2)nc2ccccc12
 : i, 1.2
O=C(NN1C(=O)/C(=C/c2ccc(O)cc2)SC1=S)c1cccc(O)c1
 : i, 8.1
Cc1ccc(CN2C(=O)C(C)(C)Oc3ccc(C(=O)N4CCCCC4)cc32)cc1
 : i, -0.4
Cc1ccc(NC(=S)Nc2ccc(S(=O)(=O)Nc3ncccn3)cc2)c(C)c1
 : i, 0.84
C/C(=N/OCc1ccc(Br)cc1)c1ccccn1
 : i, 0.77
Cc1cccc(NCC(=O)N/N=C\c2ccccn2)c1
 : i, 0.46
CCc1nc2ccccc2n1CCc1ccccc1
 : i, 1.1
COc1cc(NC(=O)Cc2ccc([N+](=O)[O-])cc2)c(C(=O)O)cc1OC
 : i, -0.27
CCOC(=O)c1c(CN2CCCCC2C)oc2ccc(OC)cc12 (stereo not given)
 : i, 0.2
CC(C)CNC(=O)c1ccccc1SCC(=O)NC12CC3CC(CC(C3)C1)C2
 : i, 0.98
Cc1ccc(N(CCC#N)C(=O)CN2C(=O)NC(Cc3ccccc3)C2=O)cc1 (stereo not given)
 : i, 1.8
COc1cccc(NCCC(=O)c2cccc([N+](=O)[O-])c2)c1
 : i, 0.36
Cc1ccc(C(=O)NNC(=S)NC(=O)c2ccc(Cl)cc2)cc1
 : i, 0.49
Cc1ccnc(N2C(=O)OC(C)(C)C2(C)O)c1 (stereo not given)
 : i, 0.05
N#C/C(=C\c1ccc(N2CCOCC2)o1)C(=O)NC1CCCCC1
 : i, 13
CCCCS(=O)(=O)N1CCC(C(=O)NCC2CCCO2)CC1 (stereo not given)
 : i, 1.9
O=[N+]([O-])c1ccccc1/C=N/n1c(COc2ccccc2)n[nH]c1=S
 : i, -0.55
Cc1ccc(S(=O)(=O)N(C)C)cc1NC(=O)C1CCCCC1
 : i, 0.83
CC(=O)Nc1ccc(C(=O)OC2CCOC2=O)cc1 (stereo not given)
 : i, -0.45

# Structures shown so far containing a thiophene ring, fused or not:
# The line under a structure holds: KCNQ2 block, KCNQ2 block baseline
CCN(CC(=O)Nc1ccccc1OC)C(=O)/C=C/c1cccs1
 : i, 1.3
Cc1ccnc(NC(=O)c2cc(-c3ccc(Cl)s3)nc3ccccc23)c1
 : i, -0.83
CCCOc1ccc(C2=NNC(c3cccs3)=Nc3ccc(OC)cc32)cc1
 : i, 0.13
O=C(O)c1cc(-c2cccs2)nn1-c1ccc(F)cc1
 : i, 0.86

# Continuation:
# The line under a structure holds: KCNQ2 block, KCNQ2 block baseline
CCCCOC(=O)Cn1c(=O)c2c(nc3n2CCCCN3c2ccc(C)cc2)n(C)c1=O
 : i, 0.22
COc1ccc(-n2c(Cc3ccccc3)nnc2SCC(=O)N2CCCc3ccccc32)cc1
 : i, 0.06
O=C(N/N=C/c1cc(Br)ccc1O)Nc1ccccc1
 : i, -0.61
CCOc1ccc(Br)cc1C1C(C(=O)OC)=C(N)Oc2cc(N(C)C)ccc21 (stereo not given)
 : i, 0.35
CSc1ccccc1OCc1cc(C(=O)N(C)Cc2c(C)n[nH]c2C)no1
 : i, 0.03
COc1cccc(-n2c(=O)c3sccc3n(CC(=O)NC3CCCCC3)c2=O)c1
 : i, 1.4
O=C(NCc1ccc(F)cc1)C(=O)NCC1OCCN1S(=O)(=O)c1ccc2c(c1)OCCO2 (stereo not given)
 : i, -0.18
O=C(COc1c(Cl)cc(Cl)cc1Cl)c1ccc(Cl)cc1
 : i, 1.3
N#C/C(=C/c1cccnc1)c1ccccc1
 : i, -0.63
C/C(CC(=O)Nc1ccc(C)cc1C)=N\NC(=O)C(C)C
 : i, 0.69
Cc1ccc(N/N=C/c2ccc(N3CCOCC3)cc2)cc1C
 : i, 0.22
Cc1cc(C(=O)NN)c(C)o1
 : i, 2.9
COc1ccc(OC)c(NC(=O)COC(=O)c2nc(Cl)ccc2Cl)c1
 : i, -0.1
COc1ccc(C(=O)N2CCC(CCC(=O)Nc3cccc(C)c3)CC2)cc1
 : i, -0.44
O=C(CCCSc1nnc(SCCCC(=O)c2ccc(F)cc2)s1)c1ccc(F)cc1
 : i, -0.1
CN1[C@@H]2CC[C@H]1CC(OC(=O)[C@H](CO)c1ccccc1)C2 (stereo not given in full)
 : i, 0.76
CSc1ccccc1NC(=O)Cn1nc([N+](=O)[O-])c(Cl)c1C
 : i, 1
CCC(=O)NNC(=O)c1c(O)c2ccccc2[nH]c1=O
 : i, 1
O=C1/C(=C/c2ccccc2)SC(=S)N1N1C(=O)C2CC2C1=O (stereo not given)
 : i, 0.05
NNc1nc(-c2ccccc2)nc(-c2ccccc2)c1Br
 : i, -0.74
CCc1ccc(C2C(C#N)=C(N)N(N(C)C)C3=C2C(=O)CCC3)cc1 (stereo not given)
 : i, 2
CCOc1cc(/C=C2\C(=O)N(CCC#N)N=C2C)ccc1OCC(N)=O
 : i, 0.08
COCCn1c(N)c(N(Cc2ccccc2)C(=O)c2ccc3ccccc3c2)c(=O)[nH]c1=O
 : i, 1.1
O=C1CCCC(=O)C1=C1SCCS1
 : i, 0.21
O=C(C[n+]1cc(Br)cc2ccccc21)c1ccc(Cl)cc1
 : -7.5*, -0.08*
O=C(Nc1ccc(-c2csc(Nc3ccccc3)n2)cc1)c1ccccc1
 : i, 0.68
O=C(Cn1c2ccc(F)cc2c2nc3n(c(=O)c21)CCS3)Nc1ccc(Cl)cc1F
 : i, -0.71
CCOCCN(C(=O)c1ccccc1Cl)c1cccc(C)c1C
 : i, -0.95
O=C(c1ccccc1F)N1CCN(C(=O)C(c2ccccc2)c2ccccc2)CC1
 : i, -1.2
COCCOC(=O)c1[nH]c2c(c1C)C(=O)CC(c1ccccc1)C2 (stereo not given)
 : i, -1.8
CCOc1ccc(NC(=O)C2CCC(CNc3c(N4CCC(C)CC4)c(=O)c3=O)CC2)cc1 (stereo not given)
 : i, 0.04
CC(=O)c1c(C)n(-c2ccccc2)c2ccc(OCC(N)=O)cc12
 : i, 2.2
CCOC(=O)CSc1nnc(Cc2ccccc2)n1-c1cccc(Cl)c1
 : i, 1
Fc1ccccc1-c1nc(NC2CCCC2)c2ccccc2n1
 : i, 0.93
Cc1ccc(S(=O)(=O)NCc2ccccn2)c(C)c1
 : i, -0.25
O=C1CCC(=O)N1CNc1ccc(Oc2ccccc2)cc1
 : i, -0.47
CC(=O)c1ccc(OCc2cc([N+](=O)[O-])cc3c2OCOC3)cc1
 : i, -1.8
COc1ccc(Nc2nc3c(C)cccn3c(=O)c2C=NCc2ccccc2)cc1
 : i, 1.4
O=C(CSc1nnnn1-c1ccc2c(c1)OCCO2)c1cccc2c1OCCO2
 : i, -1.5
COC(=O)CSc1nnc(CNC(=O)c2ccco2)n1-c1ccc(F)cc1
 : i, 1.5
CC(C)(C)NC(=O)CSc1ncnc2c1cnn2-c1ccccc1
 : i, 1.8
O=C(O)c1c2c(nc3ccccc13)/C(=C/c1c(F)cccc1F)CCC2
 : i, 0.21
O=C(NC(N1CCOCC1)C(Cl)(Cl)Cl)c1ccccc1Cl (stereo not given)
 : i, -0.82
COc1ccc(NC(=O)Nc2ccc3c(c2)OCO3)c(C)c1
 : i, -1.2
CC1COc2ccccc2N1S(=O)(=O)c1ccc(Cl)cc1 (stereo not given)
 : i, 0.41

# Reprinted at random: four entries already listed, in no set order.
# The line under a structure holds: KCNQ2 block, KCNQ2 block baseline
COc1ccc(Nc2nc3c(C)cccn3c(=O)c2C=NCc2ccccc2)cc1
 : i, 1.4
CCOC(=O)CSc1nnc(Cc2ccccc2)n1-c1cccc(Cl)c1
 : i, 1
O=C(O)c1c2c(nc3ccccc13)/C(=C/c1c(F)cccc1F)CCC2
 : i, 0.21
COc1ccc(NC(=O)Nc2ccc3c(c2)OCO3)c(C)c1
 : i, -1.2

# Additional entries follow:
# The line under a structure holds: KCNQ2 block, KCNQ2 block baseline
CCOC(=O)c1ccc(NC(=O)c2nccnc2C(=O)O)cc1
 : i, 1.4
COc1ccc(C=O)cc1COc1ccc(Cl)cc1[N+](=O)[O-]
 : i, -1.4
CCOc1ccc(S(=O)(=O)NCCCn2ccnc2)cc1
 : i, -0.53
Clc1ccccc1-c1ncc2ccccn12
 : i, -0.78
Cc1ccc(S(=O)(=O)N2CCCCC2)cc1C(=O)Nc1ccc(S(=O)(=O)Nc2ncccn2)cc1
 : i, -1.4
NS(=O)(=O)c1ccc(CCNC(=O)c2ccc(Cn3c(=O)[nH]c4ccccc4c3=O)cc2)cc1
 : i, 0.75
CN(C)c1ccc(/C=N/NC(=O)c2cnc3ccccc3c2)cc1
 : i, -0.36
CC(=O)CCc1oc2ccc(C)cc2c1Cc1ccccc1
 : i, 0.34
CC(C)c1ccc(NC(=O)NCc2cccnc2)cc1
 : i, -0.59
O=C(COC(=O)c1ccccc1NC(=O)c1ccco1)NC1CCCCC1
 : i, 0.43
COc1ccc(OCCCCN2CCC(C)CC2)cc1
 : i, -0.41
COC(=O)c1cc(OC)c(OC)cc1NC(=O)C(C)c1ccc([N+](=O)[O-])cc1 (stereo not given)
 : i, -1.9
O=C1c2ccc(Oc3ccc([N+](=O)[O-])cc3)cc2C(=O)N1CCO
 : i, 1.9
Brc1ccccc1-c1nnc(CSc2nncn2-c2ccccc2)o1
 : i, 1.2
O=C(O)CCN1CCc2ccccc21
 : i, 2.6
CC(C)[C@H](NS(=O)(=O)c1ccc2c(c1)OCCO2)C(=O)OCC(=O)Nc1ccccc1Cl
 : i, 1.7
Cc1ccc(C)c(NC(=O)c2ccc(S(=O)(=O)C(F)F)cc2)c1
 : i, -1.1
COC(=O)C1=C(C)N(c2cccc3ccccc23)C(=O)C1
 : i, 0.17
COC(=O)c1ccccc1NC(=O)Cn1nnc(-c2ccc3c(c2)OCO3)n1
 : i, 0.85
O=C(/C=C/c1ccccc1)OCC(=O)N1CCN(c2ccccc2)CC1
 : i, 1.4
O=S(=O)(Nc1ccc2c(c1)nc1n2CCOC1)c1ccc(Cl)cc1
 : i, 0.53
Cc1nnc(SCC(=O)NCc2ccc3c(c2)OCO3)n1C
 : i, 0.71
Cc1ccc2[nH]c(=O)c(-c3noc(CC(C)C)n3)cc2c1
 : i, -0.34
COCCn1cc(C(=O)c2ccccc2OCC(=O)Nc2cc(C)on2)cc(C#N)c1=O
 : i, 1.3
C/C(=N/NC(=O)c1cccs1)c1ccco1
 : i, -0.93
O=C(/C=C/c1ccc(F)cc1)NC(=S)N1CCN(Cc2ccccc2)CC1
 : i, 0.01
O=C(N/N=C/c1ccc(OCC(=O)N2CCCCC2)cc1)c1ccccc1O
 : i, 0.01
CC1=C(C(=O)OC(C)C)C(c2ccc(N(C)C)cc2)C2=C(CC(C)(C)CC2=O)N1 (stereo not given)
 : i, -0.62
CN(Cc1nccs1)C(=O)c1ccc(OC2CCN(CCc3ccccc3)CC2)cc1
 : i, -1.4
CC(=O)Oc1ccc(C(=O)Nc2ccc(C3(C#N)CCCC3)cc2)cc1
 : i, -0.75
Cn1c(CC(=O)Nc2ccccc2Cl)nnc1SCC(=O)Nc1nncs1
 : i, 0.81
Cc1ccc(NC(=O)CCC(=O)NNC(=O)COc2cccc3ccccc23)c(C)c1
 : i, 0.07
Cc1nnc(NNS(=O)(=O)c2ccc(Cl)cc2)[nH]c1=O
 : i, 0.06
